High-throughput results (PubChem BioAssay)
GLA inh pH 4.5 = alpha-galactosidase A (human) inhibition, pH 4.5. 230,000 tested, under 10 active. P06280. activity change, negative = inhibition, % at 105 µM. AID 1467. purified enzyme, 4-MU-alpha-Gal fluorescence, pH 4.5; inconclusive = small, poorly fitted or top-dose-only inhibition, or a rising curve; inactive = flat fitted curve, though single readings scatter; no compound was filed as active;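 note: 0% = full activity with enzyme and -100% = basal without enzyme; dose as in the result columns while the protocol names 77 µM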
Rango dissoc inh = inhibitors of RanGTP-induced Rango-importin beta complex dissociation | O95149+P62826 | Potency, µM (top dose mostly 46.1 µM), for the others: at the top dose activity change, negative = inhibition | 340,000 compounds, 0.071% hits | Biochemical FRET Rango-importin beta, RanGTP-induced dissociation; active means falling FRET ratio curve, often poorly fitted, with flat reads before Ran was added; inconclusive means other falling curves, or compound fluorescence or quenching; inactive means flat or rising ratio curve;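 note: potency is the fitted concentration of half-maximal effect; % of control where 0% means no effect; nearly all actives have a fitted effect of over 45% in size; -100% = wells without RanGTP and RCC1; the record marks most hits as doubtful in a second field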
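Quantitative HTS using a FRET biosensor: 0.1 uM Rango, 0.25 uM importin beta, 0.6 uM Ran, 2 mM GTP, 0.2 uM RCC1 final, PBS with DTT, Tween-20 and BSA. Post-read taken 45 min after Ran addition.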
miR-21 FLuc = raises the signal of a miR-21 reporter | HeLa miR-21 FLuc reporter, luciferase, 48 h | 340,000 tested, under 10 active | Potency, µM (series often up to 38.3 µM), inactives show at the highest dose reporter change, positive = more light; active = well fitted rising curve with a large enough effect; inconclusive = small, poorly fitted or top-dose-only effect; inactive = no such curve, though single readings can be large or run the other way;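 note: % of control where 0% means no effect; miR-21 action dims this reporter so a rising signal means less miR-21 action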
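HeLa cells stably expressing CMV-driven firefly luciferase with a downstream miR-21 binding sequence, endogenously expressing miR-21, were treated with titrations (up to about 40uM final) for 48 hours at 37 degree Celsius. Luciferase luminescence was read after lysis.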
Rango complex inh = inhibitors of Rango-importin beta complex formation | Q14974 | 340,000 compounds, 0.031% hits | Rango CFP/YFP FRET sensor + importin beta, 45 min | Potency, µM (doses to about 92.2 µM), for inactives: top-dose inhibition of complex formation; active = rising FRET ratio curve, often small or poorly fitted; inconclusive = mostly compound fluorescence or quenching in the first reads; inactive = flat curves in all reads;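 note: potency is the fitted concentration of half-maximal effect; 0% = DMSO wells and 100% = buffer wells lacking importin beta; nearly all actives have a fitted effect of over 15% in size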
Target sequence (Q14974 whole entry, looked up): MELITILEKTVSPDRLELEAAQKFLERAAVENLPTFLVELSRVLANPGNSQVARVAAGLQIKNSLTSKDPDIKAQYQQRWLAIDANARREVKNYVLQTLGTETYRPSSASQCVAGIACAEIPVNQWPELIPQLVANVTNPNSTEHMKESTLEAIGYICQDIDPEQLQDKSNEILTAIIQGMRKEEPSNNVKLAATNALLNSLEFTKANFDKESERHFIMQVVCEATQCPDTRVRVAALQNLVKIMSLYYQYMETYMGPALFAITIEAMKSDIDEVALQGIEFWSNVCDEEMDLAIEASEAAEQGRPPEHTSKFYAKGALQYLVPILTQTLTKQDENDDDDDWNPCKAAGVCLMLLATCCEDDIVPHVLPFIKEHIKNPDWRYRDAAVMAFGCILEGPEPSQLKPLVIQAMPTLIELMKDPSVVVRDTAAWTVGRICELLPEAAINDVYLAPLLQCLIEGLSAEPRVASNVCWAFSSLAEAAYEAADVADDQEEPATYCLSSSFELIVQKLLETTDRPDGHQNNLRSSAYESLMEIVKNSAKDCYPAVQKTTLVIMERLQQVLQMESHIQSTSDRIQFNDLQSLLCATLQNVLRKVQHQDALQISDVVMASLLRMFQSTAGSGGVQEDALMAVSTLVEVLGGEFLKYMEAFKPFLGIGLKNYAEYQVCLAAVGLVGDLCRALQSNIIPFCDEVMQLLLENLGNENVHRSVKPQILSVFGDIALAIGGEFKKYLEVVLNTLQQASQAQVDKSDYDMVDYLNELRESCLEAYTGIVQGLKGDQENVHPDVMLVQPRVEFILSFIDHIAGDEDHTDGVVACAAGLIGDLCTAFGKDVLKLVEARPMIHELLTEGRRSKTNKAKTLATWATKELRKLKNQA
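Inhibition scored from the CFP 486 nm/YFP 530 nm FRET ratio 45 min after adding 0.125 microM importin beta to 50 nM Rango biosensor preincubated 5 min with compound (room temperature, PBS with DTT, Tween-20, BSA). No-importin wells as positive control.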
* marks the source's active call; other numbers are inactive results; ? = inconclusive; nt = no result given; & = joins results of further samples; [ ] = another dose, or the depositor's remark.

SMILES	GLA inh pH 4.5	Rango dissoc inh	miR-21 FLuc	Rango complex inh
Cc1ccc(C2CC2c2n[nH]c(=S)n2-c2ccc(C)cc2)cc1 (stereo not given)	-12	5%	-10%	7.6%
COC(=O)c1ccc(S(=O)(=O)N2CCN(C(c3ccccc3)c3ccccc3)CC2)n1C	-11	5%	0%	-1.8%
CCn1c(=O)c2c(nc(SCc3ccccn3)n2C)n(C)c1=O	-2	25%	-5%	-2.5%
O=C(Nc1ccccc1)C1=C[C@@H](C2CC2)C[C@@H](OCc2ccc(CO)cc2)O1	-10	3%	-11%	?
CCC(Cc1ccccc1)NC(=O)CSc1ccsc1[N+](=O)[O-] (stereo not given)	5	-16%	-1%	0.2%
CCOCCn1c(SC(C)C(C)=O)nc2c1c(=O)[nH]c(=O)n2C (stereo not given)	-5	-10%	-16%	0.8%
CC(NC(=O)Cc1ccsc1)c1ccc(Cl)cc1Cl (stereo not given)	nt	-2%	-5%	-1.6%
CCOC(=O)Cc1csc(NC(=O)Cc2ccccc2[N+](=O)[O-])n1	-1	11%	-23%	2.4%
O=S(=O)(Nc1ccon1)c1cc(Cl)ccc1Cl	nt	9%	0%	1.0%
OC1(c2ccccn2)COc2ccccc2O1 (stereo not given)	3	1%	-1%	-1.1%
Cc1c(C(=O)NCCCc2ccccc2)cccc1[N+](=O)[O-]	-3	-2%	-7%	3.4%
FC(F)(F)Oc1ccc(Nc2nc(N3CCOCC3)nc(N3CCOCC3)n2)cc1	nt	14%	-2%	-6.0%
O=C(c1nn(Cc2ccccc2)c(=O)c2ccccc12)N1CCc2ccccc2C1	-6	-2%	-2%	4.3%
CCOc1ccc(CNCCCSc2ncccn2)cc1OC	nt	-2%	-6%	5.3%
O=C(CCNS(=O)(=O)c1ccc(OC(F)(F)F)cc1)Nc1cccc(S(=O)(=O)N2CCCC2)c1	nt	0%	nt	0.0%
NC(=O)C1CCCN(C(=S)Nc2ccccc2)C1 (stereo not given)	-11	-4%	-3%	1.0%
COc1ccc(CCNc2nnc(C)c(=O)[nH]2)cc1OC	4	0%	-2%	-7.0%
Cc1ccc(SCC(=O)N2CCc3ccccc32)cc1	2	-26%	-76%	1.8%
Cc1ccc(OC(=O)c2ccc(N3CCOCC3)c([N+](=O)[O-])c2)cc1	-13	-1%	2%	3.5%
C(=N\n1cnnc1)/c1ccccn1	0	-13%	-2%	-6.8%
CN(Cc1ccccn1)C(=O)C1CCC(=O)N(Cc2cccc(F)c2)C1 (stereo not given)	nt	0%	-2%	1.2%
O=C1CN(C(=O)/C=C/c2cccc(Cl)c2)c2ccccc2N1	8	3%	-1%	3.5%
CC(C)c1ccc(NC(=O)COC(=O)c2c[nH]c(=O)[nH]c2=O)cc1	1	?	-21%	5.0%
O=C(NCCc1ccc(F)cc1)C1CCCO1 (stereo not given)	nt	10%	-4%	-4.3%

Single entries from the results shown:
Rango dissoc inh, `CCOC(=O)Cc1csc(NC(=O)Cc2ccccc2[N+](=O)[O-])n1` is entered as 11%
Rango complex inh, `CCOc1ccc(CNCCCSc2ncccn2)cc1OC` is entered as 5.3%

Further entries:
SMILES	GLA inh pH 4.5	Rango dissoc inh	miR-21 FLuc	Rango complex inh
O=C(c1ccco1)N1CCN(C(=O)c2cnn(-c3ccc(Cl)cc3)c2C2CCNCC2)CC1	nt	13%	1%	6.1%
CCn1c(SCC(=O)N2CCC(C)CC2)nnc1-c1ccco1	nt	-4%	1%	6.4%
Cc1ccc(/C([O-])=C(/C(=S)NCc2ccco2)[n+]2ccccc2)cc1[N+](=O)[O-]	3	-1%	-1%	0.1%
CCOc1ccccc1CNC(=O)c1ccc(Sc2ccc(Cl)cc2)c(NC(C)=O)c1	-4	-7%	12%	1.2%
COc1cc(/C=C(/NC(=O)c2ccccc2)C(=O)N2CCOCC2)c([N+](=O)[O-])cc1OC	nt	-7%	0%	-0.3%
N#CCSc1ccc(-c2nc3ccccc3[nH]2)cn1	-1	-4%	-31%	1.4%
O=C(Cc1cn2ccsc2n1)Nc1nc2c(s1)CCCC2	5	5%	-5%	4.0%
c1ccc(Nc2cccc3ccccc23)cc1	nt	?	nt	-1.8%
COc1ccc(S(=O)(=O)CCc2nnc(NC(=O)c3cccs3)s2)cc1	6	-10%	0%	-3.3%
CCc1c(C)sc(NC(=O)c2cc(-c3cc(OC)ccc3OC)on2)c1C#N	-5	-4%	-1%	-0.6%
CC(=O)Oc1ccc2cc(-c3ccccc3)c(=O)oc2c1	?	?	-39%	?
Cc1ccc(C)c(N2CCN(CCCNC(=O)Cn3cc4c(n3)CCCCC4)CC2)c1	1	-7%	24%	1.9%
COc1ccc2[nH]c(C)c(C(=O)CN3CCOCC3)c2c1	0	-13%	3%	0.4%
O=C(Nc1cccc(NC(=O)c2cc([N+](=O)[O-])ccc2Cl)n1)c1cc([N+](=O)[O-])ccc1Cl	nt	1%	nt	21µM*
Cc1cc2c(c(=O)n1CCN(C)C)C(c1ccncc1)C(C#N)=C(N)O2 (stereo not given)	7	-4%	-3%	0.7%
Cc1ccc(NC(=O)CN(c2ccc(C)cc2)S(=O)(=O)c2cccc3nonc23)cc1	-9	14%	4%&-1%	-4.8%
COc1ccccc1-n1c(SCC(=O)NC2CCCCC2)nc2c(c1=O)SCC2	-3	-33%	-12%	-3.8%
CCn1c(-c2cccs2)nc2ccccc21	3	8%	-35%	0.2%
CC(NC(=O)CCCCCNC(=O)N1CCn2c1nc1ccccc12)c1ccccc1 (stereo not given)	nt	20%	6%	-1.4%
Cc1cc(Br)ccc1NC(=O)CNC(=O)CSc1nccn1C	nt	1%	nt	-1.2%
S=C(/N=c1/sccn1Cc1ccccc1)NC1CC1	nt	0%	2%	-2.0%
O=[N+]([O-])c1cc(Br)ccc1C[n+]1ccccc1	nt	0%	nt	-0.4%
Cc1ccc(S(=O)(=O)Nc2ccc3cn[nH]c3c2)cc1	nt	4%	nt	-2.4%
CCN(C(=O)CSc1nnc(C2CC2)n1-c1ccccc1)C1CCS(=O)(=O)C1 (stereo not given)	nt	6%	nt	0.5%

Compound profiles, as listed above. Values in the order: GLA inh pH 4.5	Rango dissoc inh	miR-21 FLuc	Rango complex inh
Profile of CCOc1ccc(CNCCCSc2ncccn2)cc1OC = nt	-2%	-6%	5.3%
Profile of NC(=O)C1CCCN(C(=S)Nc2ccccc2)C1 (stereo not given) = -11	-4%	-3%	1.0%

Carrying on.
SMILES	GLA inh pH 4.5	Rango dissoc inh	miR-21 FLuc	Rango complex inh
CC1=NN2C(=N)/C(=C\c3cc(C)n(-c4ccccc4)c3C)C(=O)N=C2S1	2[21.1 µM]	-13%	-10%	-1.0%
COCCNC(=O)C(NC(=O)C1CCCCC1)C12CC3CC(CC(C3)C1)C2 (stereo not given)	-2	16%	0%	-2.5%
CCOC(=O)c1cnc2nc(NCc3ccc(OCc4ccccc4)cc3)[nH]n2c1=O	-8	-9%	-2%	0.8%
O=C(COC(=O)CNC(=O)c1ccc(F)cc1)NC1CCCc2ccccc21 (stereo not given)	nt	?	nt	0.0%
O=C(Nc1nc2ccccc2s1)C1c2ccccc2Oc2ccccc21	-23	-13%	4%	-1.4%
O=C1CN2C(=Nc3ccc(Cl)cc3C2c2ccccc2)CN1 (stereo not given)	-4	-2%	9%	0.2%
C[C@H](CO)N1C[C@H](C)[C@@H](CN(C)CC2CC2)Oc2c(NS(=O)(=O)c3ccccc3)cccc2C1=O	nt	9%	nt	0.6%
CC1(C)Cc2c(sc3c2c(=O)n(Cc2ccccc2)c2nncn32)CO1	-2	7%	0%	-3.0%
Cc1cccc(C(=O)OCC(=O)NC(=O)c2ccccc2)c1O	nt	-1%	nt	2.2%
Cc1cc(C(=O)N2CCC(C(N)=O)CC2)c(C)o1	nt	2%	nt	-3.3%
CC1(C)CC(=O)C2=C(C1)OC(=O)CC2c1cccs1 (stereo not given)	-4	?	5%	0.7%
Cc1ccc(C(=O)N2CC(C)CC(C)C2)cc1S(=O)(=O)N1CCCCC1 (stereo not given)	nt	13%	nt	-4.3%
COc1ccc(C(=O)COC(=O)Cc2n[nH]c(=O)c3ccccc23)c(OC)c1	nt	9%	nt	3.4%
Cc1ccc(S(=O)(=O)N(C)Cc2ccccc2)cc1C(=O)N1CCCCC1	nt	9%	13%	0.2%
CC1(C)Cc2nc(Cl)c(C(=O)O)cc2CO1	9	0%	-2%	3.4%
CN(C)c1nc(N)c(C#N)c(C#N)c1C#N	nt	-6%	nt	?
c1ccc(CN2CCC(Nc3nc(-c4cccs4)nc4ccccc34)CC2)cc1	-6	-7%	26%	3.3%
CCOC(=O)N1CCN(C(=O)CS(=O)(=O)c2cn(Cc3cccc(F)c3)c3ccccc23)CC1	1	10%	0%	-2.6%
O=C(c1ccc(COc2ccccc2)o1)N1CCN(S(=O)(=O)c2ccccc2Cl)CC1	nt	-9%	nt	0.5%
CC(C)C12CN(C(=O)c3ccccc3[N+](=O)[O-])CC(C(C)C)(CN(C(=O)c3ccccc3[N+](=O)[O-])C1)C2=O	-2	28%	5%	1.2%
CCn1c(SCC(=O)c2cc(C)n(C)c2C)nnc1-c1ccccc1	6	3%	6%	-0.1%
Cn1ncc2c1ncn1nc(CCc3ccccc3)nc21	-1	8%	-51%	0.8%
O=C(O)c1ccccc1C(=O)Nc1ccc(-c2csc(-c3ccccc3)n2)cc1	-2	-1%	-55%	5.5%
O=C(C1CC1)N1CCN(c2ccc([N+](=O)[O-])cc2)CC1	nt	-16%	nt	4.0%
COc1cccc(CNC(=O)CCNS(=O)(=O)c2ccc(Br)s2)c1	nt	13%	3%	-2.9%
COC(=O)c1[nH]c2ccc(F)cc2c1NC(=O)Nc1ccc(OC)cc1	11	-7%	-5%	-1.4%
O=C1CC(Nc2ccc(N3CCOCC3)cc2)C(=O)N1c1cccc(C(F)(F)F)c1 (stereo not given)	2	-1%	-11%	2.7%
CCC(CC)NC(=O)Nc1ccccc1C	-2	19%	3%	6.1%
CC(=O)Oc1ccc(Cl)cc1CN(C(C)=O)C1CCCCC1	nt	13%	nt	-2.4%
O=C(CCS(=O)(=O)Cc1ccccc1)NC1CCCCC1	-3	-8%	0%	7.0%
COc1ccc(C(OC(=O)c2ccco2)C(=O)NCC2CCCO2)cc1 (stereo not given)	5	-10%	-1%	-0.6%
COC(=O)c1nn(-c2ccccc2)c(Cl)c1/C=N/OC(=O)c1ccc(Cl)c(Cl)c1	7	3%	-5%	2.7%
CCCCC(=O)NS(=O)(=O)c1ccc(NS(C)(=O)=O)cc1	-16	-6%	?	0.9%
O=C(C(c1ccccc1)c1ccccc1)N1CCN(CC(O)COc2ccccc2)CC1 (stereo not given)	-3	-4%	11%	-0.3%
Cc1noc(C)c1S(=O)(=O)NCc1ccc(CN(C)C)cc1	nt	-3%	nt	1.7%
O=C(O)c1ccc(-c2nc(-c3ccc(Cl)cc3Cl)cs2)cc1	-4	-7%	-57%	-0.9%

2 entries drawn at random from those above:
SMILES	GLA inh pH 4.5	Rango dissoc inh	miR-21 FLuc	Rango complex inh
O=C1CN2C(=Nc3ccc(Cl)cc3C2c2ccccc2)CN1 (stereo not given)	-4	-2%	9%	0.2%
Cc1ccc(NC(=O)CN(c2ccc(C)cc2)S(=O)(=O)c2cccc3nonc23)cc1	-9	14%	4%&-1%	-4.8%

Later entries:
SMILES	GLA inh pH 4.5	Rango dissoc inh	miR-21 FLuc	Rango complex inh
COc1ccc(C2c3sc(=O)[nH]c3SC3C4CCC(C4)C23)cc1 (stereo not given)	-1	-12%	1%	-1.8%
CC(=O)c1c(C(C)=O)c(C)n(-c2nc(-c3ccc(C)c(C)c3)c(C)s2)c1C	-18	-14%	-9%	1.3%
COc1cc(CN(C)CC2CCCN(CCc3cccc(C(F)(F)F)c3)C2)ccc1O (stereo not given)	nt	5%	3%	1.6%
Cn1c(N2C(=O)CC(Cc3ccccc3)C2=O)nc2ccccc21 (stereo not given)	-1	4%	-4%	-1.4%
O=C(CN1C(=O)c2cccc3cccc1c23)NCc1cccnc1	-10	-6%	-13%	?
O=C(Nc1ccc(Br)cc1)c1cccc(N2C(=O)C3C4CCC(C4)C3C2=O)c1 (stereo not given)	-7	2%	25%	-2.1%
CCNC(=O)C1CC(=O)OC12CCCCC2 (stereo not given)	11	1%	-3%	1.1%
CN1CCN(S(=O)(=O)c2cccc(C(=O)N(Cc3ccccc3)c3ccccc3)c2)CC1	nt	13%	nt	6.9%

The list is partial; rates above refer to the full screens.
